Beta apoptosis – inhibitors of cytokine-induced beta cell apoptosis, primary screen, luminescence; INS-1E cytokine-induced death, ATP luminescence, 48 h; percent of positive-control rescue, neutral wells zero; protection from apoptosis, % (test concentration not listed); hit rate 0.8% among 300,000; AID 435005, 2010;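 active means all replicates at 75% or more, or half of them and the mean; inconclusive means half reach 75% but not the mean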;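 further: 0% = cytokine-treated negative control wells and 100% = positive control rescue; higher means more ATP so stronger rescue from cytokine killing; wells of about 40 µL received 100 nL stock; the first replicate is given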
Vif TR-FRET – inhibitors of Vif binding to APOBEC3G peptide, primary screen, biochemical, TR-FRET, GST-Vif 1-94, biotin-A3G peptide, dose response retest (AID 1117319); TR-FRET GST-Vif / biotin-A3G peptide binding; higher % means a stronger effect; test concentration not given here; strong numbers were not always called active; hit rate 0.57% among 260,000; inhibition, %, or IC50 in µM where a hit was titrated;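 active means above the screen mean plus three standard deviations and confirmed in dose response; inconclusive means results disagree or hit not tested in dose response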;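 further: Vif residues 1-94 fused to GST binding biotinylated APOBEC3G peptide 110-148; 0% = full assay without inhibitor and 100% = GST in place of GST-Vif; retest series ran down from 100 µM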
MLL AF4-AF9 inh – inhibitors of AF4 peptide binding to AF9, primary screen, biochemical, AlphaScreen, biotin-AF4 peptide, FLAG-AF9, single point; inhibition, % at 10 µM; Protein AF-9 (Homo sapiens), P42568; hit rate 0.47% among 350,000;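 active means every replicate reaching a set inhibition limit, whatever the replicate mean, cut at about 25% in these data; inconclusive means mean inhibition reaches that limit but some replicates miss it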;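 further: 0% = plate neutral control median and 100% = total signal loss; the record names both 10 and 1 µM as test concentration; the first replicate is given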
T cruzi inh – inhibitors of intracellular T. cruzi growth, primary screen, luminescence, NIH3T3 host cells; T. cruzi beta-gal in NIH3T3, 90 h; inhibition, % (no concentration beside the values); hit rate 1.4% among 300,000; AID 1885, 2009;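 active means mean inhibition across valid replicates above about 55%, limit read from the data; inconclusive means mean below that limit but half or more replicates reach it; inactive means mean below it, under half of replicates reach it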;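 further: signal also drops with host cell toxicity which is not excluded here; 0% = plate median of DMSO wells and 100% = zero luminescence signal; higher percent means less beta-gal luminescence so fewer parasites; stock transfer was 50 nL into about 50 µL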
Calb FLC – C. albicans growth inhibition with fluconazole, primary screen, CaCi-2 strain, Alamar Blue fluorescence; C. albicans CaCi-2 (fluconazole-resistant clinical isolate) + fluconazole, 48 h; growth inhibition, % (no concentration beside the values); hit rate 0.57% among 300,000;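 active means most replicates above 75%; inconclusive means exactly half above 75%; inactive means most below 75%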;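 further: all wells also contain fluconazole at 8 µg/ml as a sub-toxic cotreatment; 0% = median of DMSO wells and 100% = median of geldanamycin control wells; wells of about 8 µL received 7.5 nL stock; the first replicate is given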
LANA-H2B inh – blockers of LANA interaction with H2A/H2B – biochemical, FP readout, HTS, primary screen. cell-free LANA-H2A/H2B peptide, fluorescence polarization. hit rate 0.6% among 320,000. Protein LANA1 (Human herpesvirus 8 type P (isolate GK18)), Q9QR71. inhibition, % (no concentration beside the values); in the data active means inhibition mostly above about 10%, no sharp cut-off; inactive means mostly below about 6.7%;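 further: stock transfer was 7.5 nL into about 10 µL; 0% = median of vehicle wells and 100% = median of positive control wells; one replicate is shown; the record names a cut of 25% in any replicate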
Target sequence (Q9QR71 whole entry, looked up): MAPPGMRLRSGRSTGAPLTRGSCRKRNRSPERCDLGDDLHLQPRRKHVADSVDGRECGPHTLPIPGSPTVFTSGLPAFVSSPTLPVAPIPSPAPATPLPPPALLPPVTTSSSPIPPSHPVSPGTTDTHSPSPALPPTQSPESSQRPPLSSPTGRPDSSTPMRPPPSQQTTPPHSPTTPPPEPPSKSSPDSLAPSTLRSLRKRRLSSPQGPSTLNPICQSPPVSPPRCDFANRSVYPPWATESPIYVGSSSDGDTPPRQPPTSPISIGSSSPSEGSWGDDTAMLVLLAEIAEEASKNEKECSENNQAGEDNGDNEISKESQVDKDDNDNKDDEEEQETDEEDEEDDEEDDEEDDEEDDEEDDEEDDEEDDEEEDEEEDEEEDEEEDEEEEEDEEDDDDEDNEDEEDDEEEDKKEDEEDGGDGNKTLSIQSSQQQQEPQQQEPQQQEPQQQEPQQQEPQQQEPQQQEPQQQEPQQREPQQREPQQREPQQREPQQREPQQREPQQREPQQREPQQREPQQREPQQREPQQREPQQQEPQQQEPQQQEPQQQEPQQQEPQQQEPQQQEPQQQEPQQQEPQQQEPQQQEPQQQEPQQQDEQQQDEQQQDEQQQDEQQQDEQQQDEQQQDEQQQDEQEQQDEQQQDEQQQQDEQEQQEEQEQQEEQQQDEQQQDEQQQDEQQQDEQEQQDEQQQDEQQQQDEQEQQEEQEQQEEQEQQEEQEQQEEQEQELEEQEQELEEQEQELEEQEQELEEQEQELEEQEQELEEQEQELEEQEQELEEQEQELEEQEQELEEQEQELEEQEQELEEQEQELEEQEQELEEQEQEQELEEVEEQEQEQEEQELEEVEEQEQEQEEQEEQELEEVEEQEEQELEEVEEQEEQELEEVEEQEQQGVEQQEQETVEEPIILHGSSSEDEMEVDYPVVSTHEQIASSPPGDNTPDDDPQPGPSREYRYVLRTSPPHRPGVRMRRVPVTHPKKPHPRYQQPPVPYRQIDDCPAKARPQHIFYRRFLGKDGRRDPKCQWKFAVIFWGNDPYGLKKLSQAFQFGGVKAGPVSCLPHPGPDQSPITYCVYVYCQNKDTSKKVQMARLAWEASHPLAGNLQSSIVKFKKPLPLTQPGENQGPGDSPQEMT
A1 inh – caspase 3/7 activation in MEF A1-2A-BIM cells, primary screen, A1 inhibitor project, cell-based, luminescence, HTS; Caspase-Glo 3/7 luminescence, 3 h; percent of clofoctol response, vehicle zero; caspase activation, % (concentration not given with the values); hit rate 0.066% among 330,000; AID 2462, 2010;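 active means over half of replicate activation scores above 10%, or exactly half above 10 with the replicate mean above 10; inconclusive means replicate mean below 10 yet half the replicates above 10; inactive means over half of replicates below 10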;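 further: wells of about 30 µL received 50 nL stock; many hits fall short of the cut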
RanGTP-Impb inh – inhibitors of RanGTP-importin-beta interaction, primary screen, biochemical, FRET, CFP-Ran, YFP-importin-beta, homogeneous. cell-free CFP-Ran/YFP-importin-beta FRET ratio. inhibition, % (concentration not given with the values). hit rate 1.1% among 300,000;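 active means most replicates above 15%; inconclusive means exactly half above 15%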;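 further: 0% = DMSO wells and 100% = Ran loaded with GDP instead of GTP; wells of about 40 µL received 100 nL stock; the first replicate is given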
Numbers without * were called inactive; ? = inconclusive; / = not tested or not shown; & = joins results of further samples.

SMILES	Beta apoptosis	Vif TR-FRET	MLL AF4-AF9 inh	T cruzi inh	Calb FLC	LANA-H2B inh	A1 inh	RanGTP-Impb inh
CCOc1ccccc1Nc1nnc(SCC(=O)NC(Cc2c[nH]c3ccccc23)C(=O)O)s1 (stereo not drawn)	7	/	-0.9	-9	-1	5.9	0.2	?
O=C(CN1CCN(Cc2ccccc2)CC1)Nc1nc2ccccc2s1	-6	-5%	-2.5	45	-1	-1.7	1.3	1.5
CCCCNC(=O)CSc1nnc(-c2c[nH]c3ccccc23)n1CC1CCCO1 (stereo not drawn)	-1	-3%	-0.7	-9	8	-12	0.0	-3.5
Cc1cc(=O)n2nc(N3CCCC(C(=O)NC(C)c4ccccc4)C3)sc2n1 (stereo not drawn)	-6	0%	/	-5	-5	-1.6	2.2	0.2
COc1cccc(-n2c(C)nc3c(cnn3-c3ccc(Cl)cc3)c2=O)c1	43	2%	/	4	55	1.2	-0.5	-1.7
CCN(CC)c1ccc(C(=O)NNC(=O)CCc2nc3ccccc3c(=O)[nH]2)cc1	1	/	-3.4	-8	6	-8.7	3.0	2.0
CCCC(c1nnnn1C(C)(C)CC)N(CCCO)Cc1cc2cc(C)cc(C)c2[nH]c1=O (stereo not drawn)	-3	25%&-4%	/	27	8	-0.9	0.1	-0.9
COc1ccc(OC)c(C(C)NC(C)=O)c1 (stereo not drawn)	2	3%	/	0	-2	-0.6	-0.1	1.4
COc1ccc(CN2CCN(CCCc3ccccc3)CC2)c(OC)c1	-3	/	7.0	41	0	1.1	0.3	2.0
COC(=O)C1CCCCN1C(=O)c1cc(COc2cccc3cnccc23)on1 (stereo not drawn)	101*	/	1.1	1	-9	-4.1	-0.4	1.1
COc1ccc(-c2nc3ccccn3c2/N=C/c2ccc(OC)c(OC)c2)cc1O	-1	-3%	13	-6	4	-0.6	1.1	2.9
CN(C)CCCCOc1ccccc1-c1ccccc1	-3	2%	/	12	-52	0.3	0.9	2.5
COc1ccc(C2N(Cc3ccccc3)CC(=O)N2/N=C(\C)c2ccccc2)cc1 (stereo not drawn)	-1	/	/	4	-3	0.6	2.0	0.4
O=C(Nc1ccc([N+](=O)[O-])cc1)c1ccccc1	-6	/	6.0	-9	-15	2.4	-3.2	0.8
Cc1ccc(S(=O)(=O)N2CCN(C(=O)CC(C)n3cncn3)CC2)cc1 (stereo not drawn)	2	/	-0.3	2	7	0.9	0.4	-2.2
COc1ccccc1NS(=O)(=O)c1ccc2oc(=S)[nH]c2c1	-2	2%	-16	9	2	0.8	0.7	-1.6
CC(C)c1ccc(NC(=O)C2CCCN2S(=O)(=O)c2ccccc2F)cc1 (stereo not drawn)	10	-7%	4.9	/	/	/	-0.2	/
O=C(CC(C(=O)O)c1cccc(Cl)c1)c1ccccc1 (stereo not drawn)	-5	3%	-0.6	-29	-1	2.9	-0.2	2.3
S=c1[nH]nc(-c2cccnc2)n1C1CCCCC1	-3	/	-11	-12	35	-10	-0.2	0.0
Cc1ccc(C(=O)COC(=O)CN2C(=O)C3C4CCC(C4)C3C2=O)cc1C (stereo not drawn)	/	-8%	-1.5	-5	-2	/	/	4.5
Cc1cc(=O)oc2c(N)c(O)ccc12	/	8%	3.2	14	2	3.1	-4.3	0.4
c1cncc(-c2nc3ccccc3s2)c1	2	-10%	-8.1	-4	14	-2.4	-4.1	?
O=C(NCc1ccccc1)c1ccc(S(=O)(=O)N2CCCC2)cc1	4	-1%	/	-17	1	-0.2	-0.8	0.8
COC(=O)Cn1c(C)nc2ccccc21	-5	8%	/	-6	-4	5.6	0.4	4.0
CC(C)(C)C(=O)NC(C(N)=O)=C(Cl)Cl	1	-2%	/	-2	6	1.5	-0.2	1.2
O=C(NC1CCCC1)c1cccc(S(=O)(=O)N2CCCC2)c1	1	/	-0.6	/	/	1.6	-1.3	/
O=C(CN1CCN(c2ccccc2)CC1)NCc1ccc(F)cc1	2	-12%	0.8	23	11	-0.1	-0.3	1.5
CC(C)(C)NC(=O)C1CCCN(S(=O)(=O)c2ccc(-n3cnnn3)cc2)C1 (stereo not drawn)	-7	/	0.8	3	0	2.6	-0.1	-3.7
Clc1cccc(CN2CCN(c3ncccn3)CC2)c1Cl	0	/	-6.3	-2	1	-0.9	0.0	1.4
CCCCN(CC)S(=O)(=O)c1ccccc1	-6	-3%	/	1	-12	-2.4	-0.8	-5.8
CCc1ccc(NC(=O)C2CCCN(S(=O)(=O)c3cnc[nH]3)C2)cc1 (stereo not drawn)	-1	3%	/	-8	43	2.6	-0.5	0.6
O=C(N/N=C/c1ccccn1)c1ccc(Br)o1	/	?	/	-5	8	1.9	0.4	-2.3
C=CCn1c2ccccc2c(=O)c2cc(C#Cc3cc(OC)cc(OC)c3)ccc21	17	/	-5.7	/	/	-2.1	-2.0	/
CCC(C)n1c(SCC(=O)NC2CCCC2)nc2ccccc2c1=O (stereo not drawn)	-7	/	-4.4	-5	8	-26	0.0	/
CC(Oc1ccc2c3c(c(=O)oc2c1)CCC3)C(=O)NCC1CCC(C(=O)O)CC1 (stereo not drawn)	-2	/	-0.9	-16	10	-11	-0.2	0.6
CCC(C)(C)NC(=O)c1ccc2c(c1)N(CC(=O)NC1CCCC1)C(=O)C(C)(C)O2	-4	/	-2.3	11	7	0.4	0.8	-0.8
Cn1c(=O)c2c(SCC(=O)N3CCCc4ccccc43)nc(C3CC3)nc2n(C)c1=O	4	0%	3.5	17	5	5.6	0.0	-3.5
CC(=NCc1ccccc1)C1=C(O)COC1=O	-4	32%	/	-13	-4	2.7	0.2	0.6
N#Cc1c(NCCCO)nc(-c2ccccc2)c2c1CCCC2	-3	0%	/	14	20	-5.3	0.0	2.5
CC1CC2(CCCCC2)N2C(=O)C(=O)c3cccc1c32 (stereo not drawn)	-8	5%	5.1	16	-3	3.0	-0.4	-1.1
Cc1ccc(S(=O)(=O)N(Cc2ccc(Cl)cc2)c2ccccc2C(=O)O)cc1	-8	2%	-5.0	-14	4	-3.6	0.3	0.1
Cc1nnc(NC(=O)CSc2nc3c(c(=O)n2CCc2ccccc2)SC(C)C3)s1 (stereo not drawn)	12	-2%	-15	-16	3	4.7	0.5	-2.3
COc1ccc(-c2cc(C(=O)NCCc3ccccc3)no2)cc1OC	-3	?	/	6	0	-5.3	0.6	1.6
O=C(CSc1nnc(C2CC2)n1C1CC1)c1cccs1	-5	/	3.9	/	/	-5.5	-0.9	/
O=C(COC(=O)c1ccccc1O)NCCc1c[nH]c2ccccc12	-1	/	1.3	/	/	1.6	-0.6	/
O=Cc1ccc(OCC(=O)Nc2ccccc2C(F)(F)F)cc1	-1	/	-1.7	6	10	1.5	0.3	-4.2
Cc1cccn2c(=O)c(/C=C(\C#N)S(=O)(=O)c3ccccc3)c(N3CCN(c4ccccc4)CC3)nc12	7	-5%	-0.6	41	6	-5.4	-0.2	10
N#Cc1cnn2c(-c3ccc(Cl)cc3Cl)ccnc12	/	-7%	-11	2	-15	3.2	0.3	1.1
CC(C)c1ccc(/C=C2\SC(N3CCCC3)=NC2=O)cc1	0	11%	/	4	15	-3.8	2.6	3.3
CCCc1nc2ccc(NC(=O)c3ccco3)cc2c(=O)n1Cc1ccc(Cl)cc1	4	16%	/	1	-14	1.2	0.0	-0.8

Further structures.
SMILES	Beta apoptosis	Vif TR-FRET	MLL AF4-AF9 inh	T cruzi inh	Calb FLC	LANA-H2B inh	A1 inh	RanGTP-Impb inh
Cc1ccc(Cn2ccc(NC(=O)c3cc(-c4cccs4)on3)n2)cc1	-7	-6%	/	-12	-1	2.1	-0.3	?
O=c1c2cc(N3CCOCC3)ccc2[nH]c(=S)n1CCN1CCCC1	-8	12%	/	-5	10	2.3	0.7	1.8
C#CCn1c(=NC(=O)c2cc(Cl)sc2Cl)sc2cc(S(N)(=O)=O)ccc21	-2	/	/	1	-1	/	0.0	-2.1
COc1ccc(NC(=O)C(=O)NCCN2CCN(C(=O)c3cccs3)CC2)cc1	-1	8%	/	4	-2	1.0	-0.7	-0.1
COc1ccc(-c2nc3ccccc3n2OC(C)C(=O)O)cc1 (stereo not drawn)	/	-3%	-4.0	-13	-6	1.7	1.2	-1.2
CCOc1ccc(C(=O)Nc2c(C(N)=O)oc3ccccc23)cc1	-1	21%	/	-1	-3	-2.0	-1.0	0.4
CC1CCCC(C)N1C(=O)CSc1ccc(-c2ccc3c(c2)OCCO3)nn1 (stereo not drawn)	2	/	-2.3	6	-6	3.3	-0.9	1.0
COc1ccc(Cl)cc1NC(=O)CNc1ccc(F)cc1C	-1	17%	/	-4	-1	-1.8	-0.4	6.4
Cc1nn(-c2ccccc2[N+](=O)[O-])c(=O)c2ccccc12	-4	0%	-0.6	12	23	-0.4	0.0	0.2
CCCNC(=O)CS(=O)(=O)c1ccccc1	-5	/	-1.7	1	2	-2.7	0.6	-0.2
COc1ccc(-n2nnnc2SCC(=O)NC2CCS(=O)(=O)C2)cc1 (stereo not drawn)	-4	/	-2.9	/	/	1.8	0.5	/
CC/C(Cc1ccccc1)=N/NC(=O)CCn1nnc2ccccc21	2	1%	-0.6	15	2	-2.7	-0.4	4.1
Cc1c(C(C)C[C@H](C)O)oc(=O)c2c1Oc1c(C)c(C(C)C[C@H](C)O)oc(=O)c1C2 (stereo partly drawn)	-1	/	2.2	/	/	0.9	0.9	/
COc1ccc(NC2CCCN(C(=O)c3cc(CC(C)C)nc(N)n3)C2)cc1 (stereo not drawn)	-4	/	?	21	0	4.9	0.4	-4.6
O=C1NC(c2ccccc2)=C(c2nc3ccccc3s2)C(c2ccc(F)cc2)N1 (stereo not drawn)	12	2%	/	36	20	2.7	-0.9	0.3
COc1ccccc1NS(=O)(=O)c1cccc(C(=O)NCC(c2ccco2)N(C)C)c1 (stereo not drawn)	0	-5%	5.1	-2	-9	2.3	0.4	?

An excerpt from above in order of molecular weight, smallest number first:
SMILES	Beta apoptosis	Vif TR-FRET	MLL AF4-AF9 inh	T cruzi inh	Calb FLC	LANA-H2B inh	A1 inh	RanGTP-Impb inh
CCCNC(=O)CS(=O)(=O)c1ccccc1	-5	/	-1.7	1	2	-2.7	0.6	-0.2
COc1ccc(NC2CCCN(C(=O)c3cc(CC(C)C)nc(N)n3)C2)cc1 (stereo not drawn)	-4	/	?	21	0	4.9	0.4	-4.6
O=C1NC(c2ccccc2)=C(c2nc3ccccc3s2)C(c2ccc(F)cc2)N1 (stereo not drawn)	12	2%	/	36	20	2.7	-0.9	0.3
COc1ccccc1NS(=O)(=O)c1cccc(C(=O)NCC(c2ccco2)N(C)C)c1 (stereo not drawn)	0	-5%	5.1	-2	-9	2.3	0.4	?

Assay outcomes from PubChem.
